Screening data: PubChem, Broad Institute
UUG fidelity: alters start codon recognition fidelity in yeast; S. cerevisiae UUG-firefly luciferase reporter, luminescence/redox ratio; activity score, % at 18.7 µM; 350,000 tested, 0.13% active; AID 602363;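 active means replicate mean at a twofold rise or more, about +100% in these data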;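 further: firefly luciferase made from a UUG start codon reports start codon fidelity; reporter light over untreated wells divided by growth signal over untreated wells; some hits fall short of that in this replicate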
* hit, by the source's call. A portion of the library, so the mix of outcomes need not match the whole.

structure | UUG fidelity
Cc1ccc(S(=O)(=O)Nc2ccc3c(c2)CC(=O)N([C@H](C)CO)C[C@@H](C)[C@H](CN(C)CC2CC2)O3)cc1 | 32
Cc1ccccc1S(=O)(=O)N1CCCCN2[C@H](CO)[C@@H](c3ccc(-c4cccc(F)c4)cc3)[C@H]2C1 | -3
C[C@@H]1CN([C@@H](C)CO)C(=O)c2cc(NS(=O)(=O)c3ccc(Cl)cc3)ccc2O[C@H]1CN(C)C(=O)NC1CCCCC1 | 2
CCCC(=O)N1C[C@@H]2[C@H](c3ccccc31)[C@@H](CO)N2C(=O)CC1CC1 | -3
CN1C(=O)c2cc(NS(=O)(=O)c3ccc(Cl)cc3)ccc2OC[C@H]2O[C@@H](CC(=O)O)CC[C@H]21 | -7
CO[C@H]1CN(C)C(=O)c2ccc(NC(=O)C3CC3)cc2OC[C@H](C)N(CCC(F)(F)F)C[C@H]1C | -9
Cc1noc(C)c1NC(=O)Nc1cccc2c1O[C@@H](CN(C)S(=O)(=O)c1ccc(F)cc1)[C@H](C)CN([C@@H](C)CO)C2=O | 3
COc1ccc(CN(C)C[C@@H]2Oc3ccc(NS(=O)(=O)c4ccc(Cl)cc4)cc3CC(=O)N([C@H](C)CO)C[C@H]2C)cc1 | -3
CCCNC(=O)[C@@H]1[C@@H](CO)[C@@H]2Cn3c(ccc(-c4ccncc4)c3=O)[C@@H]2N1C(=O)c1ccccc1F | 37
C[C@@H]1CN([C@@H](C)CO)C(=O)c2cccc(NC(=O)C3CCCCC3)c2O[C@@H]1CN(C)C(=O)Nc1ccc(C(F)(F)F)cc1 | 6
COc1ccc(-c2ccc3c(c2)[C@@H]2[C@@H](CCN2S(=O)(=O)c2ccccc2C)[C@H](CO)N3)cc1 | -23
C[C@H]1CN([C@@H](C)CO)C(=O)c2cc(NC(=O)Nc3ccccc3)ccc2O[C@@H]1CN(C)Cc1ccc(C(=O)O)cc1 | -1
C[C@@H]1CN([C@H](C)CO)C(=O)c2cccc(NC(=O)c3nc4ccccc4s3)c2O[C@@H]1CN(C)Cc1ccc(C(=O)Nc2ccccc2N)cc1 | 6
CO[C@@H]1CN(C)C(=O)c2cc(NC(=O)C3CC3)ccc2OC[C@H](C)N(C(=O)C2CCCCC2)C[C@@H]1C | 10
COc1cccc(-c2ccc3c(c2)[C@H]2[C@H](CCN2C(=O)c2ccccc2F)[C@@H](CO)N3C)c1 | -8
COc1ccc(C(=O)N2C[C@@H]3[C@H](c4ccccc42)[C@@H](CO)N3Cc2ccc(Cl)cc2)cc1 | 3
O=C(Nc1ccccc1)[C@H]1[C@H](CO)[C@H]2Cn3c(cccc3=O)[C@H]2N1C(=O)C1CCC1 | -18
O=C(C[C@H]1CC[C@H]2[C@@H](COC[C@@H](O)CN2S(=O)(=O)c2ccc(Cl)cc2)O1)NCCN1CCCC1 | 2
COc1ccc(S(=O)(=O)Nc2ccc3c(c2)[C@H]2C[C@H](CC(=O)O)O[C@H](CO)[C@H]2O3)cc1 | -7
COc1ccc(NC(=O)N(C)C[C@H]2Oc3ccc(NS(=O)(=O)c4cn(C)cn4)cc3C(=O)N([C@@H](C)CO)C[C@H]2C)cc1 | 7
COc1ccc(NC(=O)N2CCCCN3[C@H](CO)[C@@H](c4ccc(-c5ccccc5F)cc4)[C@@H]3C2)cc1 | 4
COc1cccc(-c2ccc([C@H]3[C@@H](CO)N4CCCCN(Cc5cncnc5)C[C@H]34)cc2)c1 | -16
OC[C@H]1Nc2ccc(-c3ccccc3)cc2[C@@H]2[C@H]1CCN2Cc1ccccc1F | 7
C[C@@H]1CN([C@@H](C)CO)C(=O)c2cccc(NC(=O)NC3CCCCC3)c2O[C@@H]1CN(C)C | -7
O=C(NC1CCCC1)N1CCCCN2[C@H](CO)[C@H](c3ccc(/C=C/c4ccccc4)cc3)[C@H]2C1 | -9
COc1ccc(S(=O)(=O)N2CC[C@@H]3[C@@H](CO)Nc4ccc(C#Cc5cccnc5)cc4[C@@H]32)cc1 | 2
C[C@H](O)C#Cc1ccc([C@H]2[C@@H](CO)N3CCCCN(C(=O)c4ccc(F)cc4)C[C@@H]23)cc1 | -7
C[C@@H]1CN([C@@H](C)CO)C(=O)Cc2cc(NC(=O)Nc3ccc(C(F)(F)F)cc3)ccc2O[C@@H]1CN(C)C | 9
COc1ccc(-c2ccc3c(c2)[C@@H]2[C@@H](CCN2C(=O)C2CC2)[C@@H](CO)N3C)cc1 | -4
OC[C@H]1[C@@H](c2ccc(C#CC3(O)CCCC3)cc2)[C@@H]2CN(Cc3ccccc3F)CCCCN12 | 13
CO[C@H]1CN(C)C(=O)c2cc(NC(=O)c3ccccc3F)ccc2OC[C@@H](C)N(C(=O)c2ccccc2F)C[C@@H]1C | 7
C[C@H]1CN([C@@H](C)CO)C(=O)Cc2cc(NC(=O)Cn3cnnn3)ccc2O[C@@H]1CN(C)Cc1ccc(Cl)c(Cl)c1 | 7
O=C(NC[C@@H]1[C@H](c2ccccc2)[C@H](CO)N1Cc1ccccn1)C1CCCC1 | -22
COc1ccccc1S(=O)(=O)N1CC[C@H]2[C@H](CO)Nc3ccc(-c4ccc(F)cc4)cc3[C@H]21 | -14
CC(C)NC(=O)N(C)C[C@H]1Oc2ccc(NC(=O)CCC(F)(F)F)cc2C(=O)N([C@H](C)CO)C[C@H]1C | -2
CN(C)C(=O)[C@H]1[C@H](CO)[C@H]2Cn3c(ccc(-c4ccccc4)c3=O)[C@@H]1N2CCc1ccccc1 | 17
O=C(CC1CC1)N1[C@H](CO)[C@@H]2c3ccccc3N(S(=O)(=O)c3ccccc3)C[C@@H]21 | 20
CC(C)NC(=O)N(C)C[C@@H]1OCc2ccccc2-c2ccccc2C(=O)N([C@H](C)CO)C[C@H]1C | 11
C[C@@H](O)C#Cc1ccc([C@H]2[C@H]3CN(C(=O)Nc4ccccc4)CCCCN3[C@H]2CO)cc1 | 1
O=C(C[C@H]1CC[C@H]2[C@@H](COC[C@@H](O)CN2C(=O)c2ccc(F)cc2)O1)Nc1nccs1 | -1
C[C@H](CO)N1C[C@H](C)[C@H](CN(C)Cc2ccc(-c3ccccc3)cc2)Oc2ccc(NC(=O)C3CCCCC3)cc2C1=O | 9
Cc1ccc(S(=O)(=O)N2CC[C@@H]3[C@@H](CO)Nc4ccc(C#Cc5ccccc5F)cc4[C@@H]32)cc1 | -21
C[C@H]1CN([C@@H](C)CO)C(=O)c2cc(NC(=O)c3ccncc3)ccc2O[C@@H]1CN(C)C(=O)Nc1ccc2c(c1)OCO2 | 1
COc1ccc(CN(C)C[C@H]2Oc3ccc(NS(=O)(=O)c4ccc(Cl)cc4)cc3C(=O)N([C@H](C)CO)C[C@H]2C)cc1 | 28
C[C@@H]1CN([C@@H](C)CO)C(=O)c2cc(NS(=O)(=O)c3ccc(F)cc3)ccc2O[C@@H]1CN(C)Cc1ccc2c(c1)OCO2 | 8
Cc1ccc(S(=O)(=O)N(C)C[C@@H]2Oc3ccc(NC(=O)CCCN(C)C)cc3C(=O)N([C@H](C)CO)C[C@H]2C)cc1 | 4
C/C=C/c1ccc([C@@H]2[C@@H](CO)N(C(=O)CC)[C@H]2CNC(=O)c2ccncc2)cc1 | 3
C[C@H]1CN([C@@H](C)CO)C(=O)c2cccc(NC(=O)c3ccncc3)c2O[C@@H]1CN(C)C | 2
CC(C)NC(=O)N1C[C@@H]2[C@H](c3ccccc31)[C@@H](CO)N2Cc1ccc(Cl)cc1 | -6
CO[C@H]1CN(C)C(=O)c2cc(NC(=O)c3nc4ccccc4s3)ccc2OC[C@@H](C)NC[C@H]1C | 1

Next section
structure | UUG fidelity
CCCC(=O)Nc1ccc2c(c1)C(=O)N(C)[C@@H]1CC[C@H](CC(=O)NCc3ccccc3Cl)O[C@H]1CO2 | -8
O=C(C[C@H]1CC[C@@H]2[C@H](COC[C@@H](O)CN2C(=O)Nc2ccc(F)cc2)O1)NCc1ccncn1 | 7
CO[C@@H]1CN(C)C(=O)c2cc(NC(C)=O)ccc2OC[C@H](C)N(CCc2ccccc2)C[C@H]1C | 5
O=C(Nc1ccccc1)N1CCCCN2[C@H](CO)[C@@H](c3ccc(C#Cc4cccnc4)cc3)[C@H]2C1 | -5
COc1ccc(S(=O)(=O)N(C)C[C@@H]2Oc3c(NC(=O)c4cnccn4)cccc3C(=O)N([C@H](C)CO)C[C@H]2C)cc1 | -2
CCC(=O)Nc1ccc2c(c1)OC[C@H](C)N(C(=O)Cc1ccccn1)C[C@H](C)[C@H](OC)CN(C)C2=O | -5
CC1C=NC(S(=O)(=O)N2CC[C@@H]3[C@@H](CO)N(C)c4ccc(-c5ccccc5F)cc4[C@@H]32)=N1 (stereo not given in full) | 3
COc1ccccc1NC(=O)N1CCCCN2[C@H](CO)[C@@H](c3ccc(C#Cc4ccccc4)cc3)[C@@H]2C1 | -14
COc1cccc(CN2[C@@H](CO)[C@@H]3c4ccccc4N(C(=O)CC(F)(F)F)C[C@@H]32)c1 | 0
C[C@@H](NC(=O)C[C@H]1C[C@@H]2c3cc(NC(=O)CC4CC4)ccc3O[C@@H]2[C@@H](CO)O1)c1ccccc1 | 0
C[C@@H]1CN([C@H](C)CO)C(=O)c2cccc(NC(=O)Nc3ccccc3)c2O[C@@H]1CN(C)S(C)(=O)=O | 6
CO[C@H]1CN(C)C(=O)c2cc(NC(=O)C3CCCC3)ccc2OC[C@H](C)N(CCC(F)(F)F)C[C@H]1C | 1
CC(C)C#Cc1ccc([C@H]2[C@@H](CO)N3CCCCN(C(=O)NC(C)C)C[C@H]23)cc1 | 4
CN1[C@H](CO)[C@@H]2c3ccccc3N(C(=O)Nc3ccccc3F)C[C@@H]21 | 16
Cc1ccc(S(=O)(=O)N2CC[C@@H]3[C@@H](CO)N(C)c4ccc(C#Cc5cccnc5)cc4[C@@H]32)cc1 | -18
O=C(Cc1ccccc1)N1C[C@@H]2[C@H](c3ccccc31)[C@H](CO)N2C(=O)C1CCOCC1 | 4
Cc1noc(C)c1NC(=O)Nc1ccc2c(c1)C(=O)N([C@@H](C)CO)C[C@@H](C)[C@H](CN(C)C(=O)NC(C)C)O2 | -4
O=C(C[C@@H]1CC[C@H]2[C@@H](COC[C@H](O)CN2C(=O)c2cnccn2)O1)NCc1ccc(Cl)cc1 | -15
O=C(c1ccccc1)N1CC[C@@H]2[C@H]1c1cc(-c3ccc(F)cc3)ccc1N[C@@H]2CO | 24
CC(C)CC#Cc1ccc2c(c1)O[C@@H](CN(C)Cc1ccccc1F)[C@@H](C)CN([C@@H](C)CO)S2(=O)=O | 19
C[C@H]1CN([C@@H](C)CO)C(=O)c2cc(NC(=O)CCCN(C)C)ccc2O[C@@H]1CN(C)C(=O)Nc1cccc2ccccc12 | 7
COc1ccc(NC(=O)N2C[C@H](O)COC[C@H]3O[C@@H](CC(=O)N4CCN(C)CC4)CC[C@@H]32)cc1 | -5
CO[C@H]1CN(C)C(=O)c2cc(NC(C)=O)ccc2OC[C@H](C)N(C(=O)Cc2cccnc2)C[C@@H]1C | -22
COc1ccc(NC(=O)N2C[C@@H]3[C@H](c4ccccc42)[C@@H](CO)N3C(=O)C2CC2)cc1 | -6
CCNC(=O)C[C@@H]1CC[C@@H]2[C@H](COC[C@H](O)CN2C(=O)Nc2c(C)noc2C)O1 | -2
COCC(=O)N1C[C@@H]2[C@H](c3ccccc31)[C@H](CO)N2C(=O)c1ccncc1 | 21
COCC(=O)Nc1ccc2c(c1)OC[C@H](C)N(C(=O)c1cccnc1)C[C@@H](C)[C@@H](OC)CN(C)C2=O | -5
COc1cccc(-c2ccc3c(c2)[C@@H]2[C@@H](CCN2S(=O)(=O)c2cn(C)cn2)[C@@H](CO)N3)c1 | 32
CN(C)CC#Cc1ccc([C@@H]2[C@@H](CO)N3CCCCN(CC4CC4)C[C@@H]23)cc1 | 7
C[C@H](CO)N1C[C@H](C)[C@@H](CN(C)Cc2ccc(C(=O)O)cc2)Oc2c(NC(=O)Nc3ccccc3)cccc2C1=O | -3
C[C@H]1CN([C@@H](C)CO)C(=O)c2cc(NS(=O)(=O)c3cccs3)ccc2O[C@H]1CN(C)C(=O)Nc1cccc2ccccc12 | 6
C[C@@H]1CN([C@H](C)CO)C(=O)c2cccc(NC(=O)c3ccncc3)c2O[C@@H]1CN(C)C(=O)Nc1ccc2c(c1)OCO2 | -23
Cc1noc(C)c1NC(=O)Nc1ccc2c(c1)C(=O)N([C@H](C)CO)C[C@H](C)[C@@H](CN(C)Cc1ccncc1)O2 | -14

Of the compounds above, these contain a Cl atom.
structure | UUG fidelity
C[C@@H]1CN([C@@H](C)CO)C(=O)c2cc(NS(=O)(=O)c3ccc(Cl)cc3)ccc2O[C@H]1CN(C)C(=O)NC1CCCCC1 | 2
CN1C(=O)c2cc(NS(=O)(=O)c3ccc(Cl)cc3)ccc2OC[C@H]2O[C@@H](CC(=O)O)CC[C@H]21 | -7
COc1ccc(CN(C)C[C@@H]2Oc3ccc(NS(=O)(=O)c4ccc(Cl)cc4)cc3CC(=O)N([C@H](C)CO)C[C@H]2C)cc1 | -3
COc1ccc(C(=O)N2C[C@@H]3[C@H](c4ccccc42)[C@@H](CO)N3Cc2ccc(Cl)cc2)cc1 | 3
O=C(C[C@H]1CC[C@H]2[C@@H](COC[C@@H](O)CN2S(=O)(=O)c2ccc(Cl)cc2)O1)NCCN1CCCC1 | 2
C[C@H]1CN([C@@H](C)CO)C(=O)Cc2cc(NC(=O)Cn3cnnn3)ccc2O[C@@H]1CN(C)Cc1ccc(Cl)c(Cl)c1 | 7
COc1ccc(CN(C)C[C@H]2Oc3ccc(NS(=O)(=O)c4ccc(Cl)cc4)cc3C(=O)N([C@H](C)CO)C[C@H]2C)cc1 | 28
CC(C)NC(=O)N1C[C@@H]2[C@H](c3ccccc31)[C@@H](CO)N2Cc1ccc(Cl)cc1 | -6
CCCC(=O)Nc1ccc2c(c1)C(=O)N(C)[C@@H]1CC[C@H](CC(=O)NCc3ccccc3Cl)O[C@H]1CO2 | -8
O=C(C[C@@H]1CC[C@H]2[C@@H](COC[C@H](O)CN2C(=O)c2cnccn2)O1)NCc1ccc(Cl)cc1 | -15

Given with the structure last: part of the list above
UUG fidelity	Structure
3	C/C=C/c1ccc([C@@H]2[C@@H](CO)N(C(=O)CC)[C@H]2CNC(=O)c2ccncc2)cc1
-9	O=C(NC1CCCC1)N1CCCCN2[C@H](CO)[C@H](c3ccc(/C=C/c4ccccc4)cc3)[C@H]2C1
